# RE007 growth inh = less growth of the S. pombe RE007 Vpr strain; S. pombe RE007 Vpr strain, BacTiter-Glo ATP luminescence, 24 h; control for the full effect not named in the record; Potency, µM (top dose mostly 92.2 µM), without a hit: at the top dose activity change, negative = less growth; hit rate 0.21% among 360,000; active = well fitted falling curve with a large enough effect; inconclusive = small, poorly fitted or top-dose-only effect; inactive = no such curve, though single readings can be large or run the other way;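 further: nearly all actives have a fitted effect of over 50% in size; the assay follows cell death caused by Vpr and the record does not say whether a fall means rescue or toxicity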
#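 Fission yeast RE007 carrying one integrated HIV-1 vpr copy, seeded at OD 0.01 in PMG+AL medium with 23 nL pinned compound. Grown 24 h at 30 degrees; viability read by BacTiter-Glo luminescence after 5 min.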
# 2A StopGo = lowers the luciferase signal of an FMDV 2A StopGo reporter. human cells with a luciferase reporter of 2A StopGo recoding; control for the full effect not named in the record. Potency, µM (highest dose often 57.9 µM), inactives show top-dose signal change, negative = less light. hit rate 1.2% among 410,000; active = well fitted falling curve with a large enough effect; inconclusive = small, poorly fitted or top-dose-only effect; inactive = no such curve, though single readings can be large or run the other way; tested in HEK293T cells; further: nearly all actives have a fitted effect of over 45% in size; luciferase light after 4 h
# * hit, by the source's call; ? = inconclusive; [ ] = another dose, or the depositor's remark. On the % scale 0 is the no-effect control and ±100 the full control effect; potency means the concentration at half of the fitted maximal effect. This is a subset. The share of hits here may be higher or lower than overall.
SMILES,RE007 growth inh,2A StopGo
CCN1C(=O)CCN(C2CCCC2)c2nc(Nc3ccc(C(=O)NC4CCN(C)CC4)cc3OC)ncc21,-11%,19%
CCCCN1C(=O)C(CC(=O)NCc2cccs2)CC(C(=O)N(C(C)C)C(C)C)=C1C (stereo not given),7%,-22%
CC1=C(C(=O)N2CCCCCC2)CC(CC(=O)NC2CCCC2)C(=O)N1CCC1=CCCCC1 (stereo not given),-11%,-13%
CC1(C(=O)NS(=O)(=O)c2ccc(F)cc2F)CCN1C(=O)Cc1ccc(Cl)cc1Cl (stereo not given),12%,-8%
COc1cccc(NC(=O)Nc2ccc(F)cc2)c1,-4%,68%[activator]
CC(C)C[C@@H]1CC2=C(C(=O)OC(C)(C)O2)[C@H](c2ccc(Cl)cc2)O1,-1%,-25%
CC(C)NC(=O)C1(C)CCCN1C(=O)c1ccccc1Br (stereo not given),5%,-3%
Cc1ccc2nc(-c3ccc(F)cc3)c(Cc3ccccn3)n2c1,-18%,18%
Cc1ccccc1CC1(CO)CCCN(C(=O)c2ccoc2)C1 (stereo not given),-2%,8%
CC1(Cc2ccc(C(F)(F)F)o2)C(=O)Nc2cc(-c3ccc(F)cc3F)ccc21 (stereo not given),-25%,?
COCCNC(=O)C1(C)CCN(C(=O)c2ccc(SC(F)(F)F)cc2)C1 (stereo not given),0%[18.4 µM],-11%
CCN(CC(=O)Nc1c(F)cccc1F)C(=O)C1CCCO1 (stereo not given),2%,-8%
CCN(Cc1cnn(C)c1)C(=O)c1ccc2nc(Cc3ccccc3F)oc2c1,11%,-4%
CCC(CC)C(=O)N(C)c1c(C)nc2c(OCc3ccc(F)c(F)c3)cccn12,4%,-30%
Nc1ccn([C@@H]2O[C@H](C(=O)N3CCN(c4ccc(Cl)cn4)CC3)[C@@H](O)[C@H]2O)c(=O)n1,4%,-2%
O=[N+]([O-])c1cccc(CON=Cc2cc(Cl)ccc2O)c1,-22%,-1%
CN1OC[C@@H]2CN(Cc3ccccc3)[C@H](c3cccc(N4CCOCC4)c3)C[C@@H]21,-17%,-24%
Cc1ccc(-c2nc3ccc(Cl)cn3c2CC2CCCCC2)cc1,-7%,-19%
CN1CCN(c2ccc(CNC(=O)c3ccc(-c4cnn(C)c4)c4ccoc34)cc2)CC1,-25%,10%
CCC(C(=O)NC1CCCC1)n1c(-c2ccccn2)nc2ccccc21 (stereo not given),6%,-17%
O=C(NCc1ccccc1)C1=C[C@H](c2ccc(C(F)(F)F)cc2)C[C@H](OCCCCO)O1,-14%,-15%
CC(C)(C)S(=O)(=O)N1C[C@@H]2CC/C=C\C/C(c3ccccc3)=C\2[C@H]1CCO,-21%,0%
CCC(CC)CN1CCC(CN2C(=O)C(=O)NC[C@@H]2[C@@H](C)CC)CC1,-5%,-17%
COc1cccc(C(NC(C)=O)c2nc(-c3cccc4cccnc34)cs2)c1 (stereo not given),-9%[18.4 µM],-3%
C/C=C1/CN2[C@@H]3C4CO[C@@H]3c3c([nH]c5cc(OC)ccc35)[C@@H]2CC14 (stereo not given in full),4%,64%[activator]
O=C(Nc1ccccc1)c1cc(C2CCCN(C(=O)OCc3ccccc3)C2)on1 (stereo not given),1%,41%[activator]
Cc1sc2ccccc2c1CNC[C@H]1O[C@@H](n2ccc(=O)[nH]c2=O)[C@H](O)[C@@H]1O,-14%,-8%
C[C@H](CO)N1C[C@H](C)[C@@H](CN(C)C(=O)c2ccc3ccn(C)c3c2)OCc2cn(nn2)CCCC1=O,-1%,-28%
O=C(NC(c1ccccc1)c1ccsc1)C1CCN(CCOc2ccc(Cl)cc2Cl)CC1 (stereo not given),-12%,-10%
Clc1cccc(Cc2c(-c3cccc(Br)c3)nc3ccc(Cl)cn23)c1,-9%,19%

# 3 of the compounds above, with bars between the fields:
Structure | RE007 growth inh | 2A StopGo
C[C@H](CO)N1C[C@H](C)[C@@H](CN(C)C(=O)c2ccc3ccn(C)c3c2)OCc2cn(nn2)CCCC1=O | -1% | -28%
O=C(NC(c1ccccc1)c1ccsc1)C1CCN(CCOc2ccc(Cl)cc2Cl)CC1 (stereo not given) | -12% | -10%
Clc1cccc(Cc2c(-c3cccc(Br)c3)nc3ccc(Cl)cn23)c1 | -9% | 19%

# (list continues)
SMILES,RE007 growth inh,2A StopGo
O=c1ccc2nc3ccccc3sc-2c1,?,14%
CC(C)N1C(=O)c2ccccc2NC(=O)C1C(=O)NC1CC1 (stereo not given),-14%,-19%
COC(=O)[C@H]1C[C@H](OC(=O)NCc2ccccc2F)[C@@]2(O)CN(S(=O)(=O)c3ccc(C)cc3)CC2[C@H]1C(=O)OC (stereo not given in full),-18%,-5%
Cc1noc(C)c1NC(=O)Nc1ccc2c(c1)C(=O)N([C@@H](C)CO)C[C@@H](C)[C@H](CN(C)C(=O)Nc1cccc3ccccc13)OCCCC[C@H](C)O2,-7%,0%
CCCCN1CC[C@H]2C=CC[C@@H](C(=O)Nc3ccc(OC)cc3)[C@H]2C1=O,-7%,6%
CC(=O)Nc1ccc(CN(C)c2c(C)nc3ccc(C(=O)N4CCN(C(C)=O)CC4)cn23)cc1,-3%[18.4 µM],-13%
CC1(C(=O)Nc2cccnc2)Cc2c(-c3ccccc3)ccnc2O1 (stereo not given),6%,-26%
COc1cc(C=NNC(=O)C(=O)Nc2cccc(Cl)c2)cc(OC)c1O,-25%,41%[activator]
OC(c1cccnc1)c1nc(/C=C/c2ccc(C(F)(F)F)cc2)cs1 (stereo not given),33%,-19%
CCOC(=O)CCCCCC(=O)Nc1ccc2c(c1)C(=O)N([C@@H](C)CO)C[C@H](C)[C@H](CN(C)C(=O)Nc1ccc(C(F)(F)F)cc1)OCCCC[C@H](C)O2,-18%,0%
CCOC(=O)C1Nc2ccc(OC(F)(F)F)cc2C2C=CCC12 (stereo not given),-19%,-18%
NS(=O)(=O)c1ccc(CCNC(=O)/C=C/c2ccc(S(=O)(=O)N3CCOCC3)cc2)cc1,1%,8%
CC1(C(=O)NCCC(F)(F)F)Cc2c(-c3ccccc3)ccnc2O1 (stereo not given),-13%,-24%
Cc1onc(-c2c(F)cccc2Cl)c1C(=O)Nc1cccc(S(=O)(=O)N2CCCCC2)c1,-3%,-23%
O=C1Nc2ccccc2-c2nnnn2C1N1CCCCC1 (stereo not given),2%,-11%

# The list goes on, overlapping the part above by 3 compounds.
SMILES,RE007 growth inh,2A StopGo
CC1(C(=O)NCCC(F)(F)F)Cc2c(-c3ccccc3)ccnc2O1 (stereo not given),-13%,-24%
Cc1onc(-c2c(F)cccc2Cl)c1C(=O)Nc1cccc(S(=O)(=O)N2CCCCC2)c1,-3%,-23%
O=C1Nc2ccccc2-c2nnnn2C1N1CCCCC1 (stereo not given),2%,-11%
Cc1c(C(=O)NNC(=O)c2ccccc2O)oc2ccccc12,-18%,30%[activator]
Cc1ccc(C)c(N2N=C(C(=O)OCc3nnc(-c4ccccc4Br)o3)CCC2=O)c1,-12%,-11%
CCc1nc2ccc(C(=O)N(CC)CCN(C)C)cn2c1N(C)C(=O)c1cccc(OC)c1,-4%[18.4 µM],-12%
COC(=O)c1ccccc1NC(=O)CSc1nc2ccsc2c(=O)n1Cc1ccc(C(=O)O)cc1,11%,-29%
CN1OC[C@@H]2CN(S(=O)(=O)c3cc(Cl)cc(Cl)c3)[C@H](c3ccc(-c4ccc(C#N)cc4)cc3)C[C@@H]21,3%,-10%
C[C@@H]1CCCCO[C@H](CN(C)C(=O)c2ccccc2)[C@@H](C)CN([C@H](C)CO)C(=O)c2cc(NC(=O)c3ccncc3)ccc2O1,21%,-16%
Cc1cccc(-c2ccc3[nH]c4c(c3c2)CCN2C[C@H]3[C@H](C)ON(C)[C@H]3C[C@@H]42)c1,-1%,-20%
CN(C)CCCOc1ccc(-c2cccc3nncn23)cn1,-10%,-20%
C#Cc1cccc(Nc2nc(NCc3ccccc3OC)nc3ccsc23)c1,-16%,32µM*
O=C1NC[C@H](CCCCN2CCN(Cc3ccccc3)C(=O)C2=O)N(CCC2CCCCC2)C1=O,-2%,-4%
Cc1cc(C)cc(CC(=O)N2CCC2(C)C(=O)NS(=O)(=O)c2cccc(OC(F)F)c2)c1 (stereo not given),7%[18.4 µM],-8%
Cc1ccc(S(=O)(=O)N2CCC(C(=O)N3CCCCCCC3)CC2)cc1C,-8%,-12%
Cc1ccc(NC(=O)C2(C)CCCN2C)cc1C (stereo not given),23%,-8%
COc1cccc(CNC(=O)[C@@H]2CCCN2C(=O)[C@@H]2CCCN2S(=O)(=O)c2ccc(OC)c(C)c2)c1,4%,-11%
CCN1CCC(CN2CCNC2=S)CC1,0%,-1%

# As entered above:
# `Cc1ccc(NC(=O)C2(C)CCCN2C)cc1C` (stereo not given) – RE007 growth inh = 23%
# `COc1cccc(CNC(=O)[C@@H]2CCCN2C(=O)[C@@H]2CCCN2S(=O)(=O)c2ccc(OC)c(C)c2)c1` – 2A StopGo = -11%
# `CCc1nc2ccc(C(=O)N(CC)CCN(C)C)cn2c1N(C)C(=O)c1cccc(OC)c1` – RE007 growth inh = -4%[18.4 µM]
# `O=C1NC[C@H](CCCCN2CCN(Cc3ccccc3)C(=O)C2=O)N(CCC2CCCCC2)C1=O` – RE007 growth inh = -2%
# `Cc1c(C(=O)NNC(=O)c2ccccc2O)oc2ccccc12` – RE007 growth inh = -18%
# `CN1OC[C@@H]2CN(S(=O)(=O)c3cc(Cl)cc(Cl)c3)[C@H](c3ccc(-c4ccc(C#N)cc4)cc3)C[C@@H]21` – 2A StopGo = -10%
# `Cc1cccc(-c2ccc3[nH]c4c(c3c2)CCN2C[C@H]3[C@H](C)ON(C)[C@H]3C[C@@H]42)c1` – RE007 growth inh = -1%

# Next section:
SMILES,RE007 growth inh,2A StopGo
CCCN(CC(=O)Nc1ccccc1OC)CC(=O)c1c(N)n(Cc2ccccc2)c(=O)n(C)c1=O,7%,?
C#CC(c1ccccc1)(c1ccccc1)n1ccnc1,23%,-24%
Cc1cc(Br)cn2c(Cc3ccsc3)c(C3CCCCC3)nc12,-28%,-21%
COc1cccc(-c2cnc3c(NC(C)=O)cc(-c4cc(OC)c(OC)c(OC)c4)cn23)c1,5%,-17%
CC1(C(=O)Nc2ccc3c(c2)OCO3)CCN1C(=O)CCc1cccs1 (stereo not given),2%,-14%
c1ccc2c(C3OCC4(CCCC4)CO3)cccc2c1,-24%,0%
CCc1c(C#N)c(=O)[nH]c(=O)n1-c1ccccc1,3%,-8%
C1=C(c2cn(-c3nc4ccccc4s3)nn2)CCCC1,-13%,0%
CSCCC(c1nnnn1C(C)(C)C)N1CCC2(CC1)C(=O)NCN2c1ccccc1 (stereo not given),6%,-11%
CCCN(CC(=O)Nc1ccccc1C)C(=O)c1ccc(OCC(=O)N2CCOCC2)c(OCC)c1,0%,14%
CCOC(=O)[C@]12Cc3c(cc(OC)c(OC)c3OC)[C@H]1N(C(C)C)C(=O)c1ccccc12,4%,?
Cc1ccc(S(=O)(=O)NC[C@H]2O[C@@H](n3cnc4c(N)ncnc43)[C@H](O)[C@@H]2O)cc1,3%,-15%
O=C(Cc1ccc(NC(=O)C2CCN(C(=O)C3CCC3)CC2)cc1)Nc1cccc(C(=O)N2CCCCC2)c1,17%,0%
Cc1ccc(S(=O)(=O)CCOC(=O)CNC(=O)OCc2ccccc2)cc1,5%,-18%
CC(=O)Nc1ccc(-c2ccnc3c2CC(C(=O)NCCc2ccccc2)O3)cc1 (stereo not given),4%,12%
C[C@H]1CN(S(=O)C(C)(C)C)[C@H](CCO)/C1=C\CCO (stereo not given in full),-8%,-23%
C/C=C(\C)C(=O)OC1[C@H](OC(C)=O)C2(CO)C(CC1(C)C)C1=CCC3C4(C)CCC(O[C@@H]5O[C@H](C(=O)O)[C@@H](O[C@@H]6O[C@H](CO)[C@@H](O)[C@H](O)[C@H]6O)[C@H](O)[C@H]5O[C@H]5O[C@H](CO)[C@@H](O)[C@H](O)[C@H]5O)[C@](C)(CO)C4CCC3(C)[C@]1(C)C[C@H]2O (stereo not given in full),-26%,28µM*
Cc1ccc(-c2cc3nc(NCCc4ccncc4)n(C)c(=O)c3s2)cc1,-4%,41%[activator]
O=C1NC[C@H](Cc2ccc(O)cc2)N(C[C@@H]2CCCN2C[C@H](Cc2ccccc2)N2C[C@H](Cc3ccc(O)cc3)N(CCc3ccccc3)C(=O)C2=O)C1=O,-7%,-10%
COc1ccc(NC(=O)Nc2nnc([C@@H]3C[C@H](O)[C@@H](CO)O3)s2)cc1,-2%[18.4 µM],-6%
CCCCCCCCN1C(=O)[C@H](CC(=O)NCCC(C)C)C[C@@]2(C(=O)OCC)CCCC=C12,4%,-8%
COC(=O)C1=C(c2cccc(OC)c2OC)C[C@@H]2CC[C@H]1N2C(=O)NC1CCCCC1,-7%,4%
CCN1C[C@@H]2[C@@H]3C(=O)N(Cc4ccccc4)C(=O)[C@@H]3[C@](CC)(C1=O)N2C(=O)c1ccc(Cl)c(Cl)c1,-11%,-2%
CC1(C(=O)NS(=O)(=O)c2ccc(Br)cc2)CCN1C(=O)CCc1ccccc1 (stereo not given),5%,11%
O=C(Cc1ccc(NC(=O)C2CCCN(C(=O)C3CC3)C2)cc1)Nc1ccc(C(=O)N2CCOCC2)cc1 (stereo not given),14%,-5%
COc1ccc(NC(=O)CN(C)C(=O)c2ccc(C)c(S(=O)(=O)N3CCCCC3)c2)cc1,-1%,47%[activator]
COc1ccc(-c2csc(C(C)(O)c3ccc(F)c(F)c3)n2)cc1 (stereo not given),?,-28%

# Structures above with two or more sulfur atoms, in the order listed:
SMILES,RE007 growth inh,2A StopGo
NS(=O)(=O)c1ccc(CCNC(=O)/C=C/c2ccc(S(=O)(=O)N3CCOCC3)cc2)cc1,1%,8%
COC(=O)c1ccccc1NC(=O)CSc1nc2ccsc2c(=O)n1Cc1ccc(C(=O)O)cc1,11%,-29%
